Screening data deposited in PubChem BioAssay by Broad Institute.
BJeLR viability – BJeLR cell viability loss, primary screen, luminescence, CellTiterGlo ATP; BJeLR fibroblasts viability, 48 h; HRASV12, hTERT and SV40 LT/ST transformed; viability loss activity score, % (no concentration beside the values); actives 0.64% (n = 30,000); in the data active means viability loss activity score above about 50%; about a fifth of its hits are not listed in these tables;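 further: higher score means fewer live cells and less ATP luminescence; stock transfer was 50 or 100 nL into about 30 µL; 0% = vehicle wells and 100% = a reference killing control; one replicate is shown; the record names a cut of 85%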
A1 inhib – inducers of caspase activity in MEF A1-2A-BIM cells, primary screen, A1 inhibitor project, cell-based, CaspaseGlo luminescence | actives 0.51% (n = 21,000) | AID 2241, 2010 | caspase activation, % (no concentration beside the values) | caspase-Glo luminescence, 3 h; percent of clofoctol signal, DMSO as zero;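 active means most replicate scores above 10, or exactly half above 10 with mean activity above 10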;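 further: effector caspase 3 and 7 activity cleaving a DEVD luciferin substrate; 50 nL library stock added to about 30 µL; numbers are from one replicate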
* marks the source's active call; other numbers are inactive results; nt = not tested or not shown. These rows are one share of the data; count on the stated rates, not on these rows.

The line under a structure holds: BJeLR viability	A1 inhib
O=C1/C(=C\c2c[nH]c3ccccc23)C(c2ccccc2)Oc2ccccc21 (centres undefined)
 : -7.8	-0.9
COc1ccc(S(=O)(=O)Nc2ccc3c(c2)C(=O)N([C@H](C)CO)C[C@H](C)[C@H](CN(C)Cc2ccccc2)O3)cc1
 : 0.5	-0.7
C[C@H]1CN([C@@H](C)CO)C(=O)c2cc(NC(=O)CCN3CCOCC3)ccc2O[C@H]1CN(C)C
 : -0.3	0.0
C[C@H]1CN([C@@H](C)CO)C(=O)c2cccc(NS(=O)(=O)c3ccccc3)c2O[C@H]1CN(C)Cc1ccc(C(=O)O)cc1
 : -1.4	nt
COc1cccc(-c2nnc(-c3ccccc3NS(=O)(=O)c3ccc(Cl)cc3)o2)c1
 : 0.2	0.4
C[C@H]1CN([C@@H](C)CO)C(=O)c2cc(NS(=O)(=O)c3ccc(F)cc3)ccc2O[C@H]1CN(C)C(=O)Nc1ccc(F)cc1
 : -0.2	-0.1
CC(C)NC(=O)Nc1cccc2c1O[C@H](CN(C)Cc1ccc(Cl)c(Cl)c1)[C@@H](C)CN([C@H](C)CO)C2=O
 : -6.0	nt
CCOC(=O)c1sc(C)c2c(=O)[nH]c(-c3ccccc3)nc12
 : 0.1	-0.1
C[C@@H]1CN([C@H](C)CO)C(=O)c2cc(NS(=O)(=O)c3ccc(F)cc3)ccc2O[C@@H]1CN(C)S(=O)(=O)c1cn(C)cn1
 : -1.0	0.2
Cc1noc(C)c1NC(=O)Nc1ccc2c(c1)C(=O)N([C@@H](C)CO)C[C@@H](C)[C@H](CN(C)Cc1ccc(C(=O)O)cc1)O2
 : -0.9	-0.7
C[C@H](CO)N1C[C@H](C)[C@@H](CN(C)Cc2ccc(C(F)(F)F)cc2)Oc2ccc(NS(C)(=O)=O)cc2C1=O
 : -4.7	-0.8
CCOc1ncc(-c2nnnn2-c2ccc(C)cc2)c(-c2cccc(Cl)c2)n1
 : 9.5	0.3
O=C(CCc1ccc(O)cc1)CC(CCc1ccc(O)cc1)O[C@@H]1OC[C@@H](O)[C@H](O)[C@H]1O (some centres undefined)
 : 1.0	0.6
C[C@H]1CN([C@@H](C)CO)C(=O)c2cccc(NC(=O)Nc3ccc4c(c3)OCO4)c2O[C@H]1CN(C)C(=O)NC1CCCCC1
 : 2.2	nt
C[C@@H]1CN([C@@H](C)CO)C(=O)c2cc(NC(=O)Cc3cn(C)c4ccccc34)ccc2O[C@H]1CN(C)CC1CCCCC1
 : 3.8	0.0
COC(=O)C1=C(O)/C(=C/c2ccc(C(C)(C)C)cc2)N=C1C
 : -2.6	0.4
C[C@H]1CN([C@@H](C)CO)C(=O)c2cc(NC(=O)Nc3cccc4ccccc34)ccc2O[C@@H]1CN(C)Cc1ccccc1
 : 1.7	0.6
Cc1ccc(S(=O)(=O)Nc2cccc3c2O[C@H](CN(C)C(=O)Nc2ccccc2)[C@H](C)CN([C@H](C)CO)C3=O)cc1
 : -2.3	nt
O=c1cc(Nc2ccc(Cl)cc2)nc(COc2ccccc2)[nH]1
 : 2.4	0.9
Cc1ccc(NC(=O)Nc2ccc(C(C)(C)C)cc2)cc1
 : 0.0	-1.1

Entries of single compounds, looked up by structure. Order of screens: BJeLR viability	A1 inhib
Shown for Cc1noc(C)c1NC(=O)Nc1ccc2c(c1)C(=O)N([C@@H](C)CO)C[C@@H](C)[C@H](CN(C)Cc1ccc(C(=O)O)cc1)O2 → -0.9	-0.7
Shown for C[C@H]1CN([C@@H](C)CO)C(=O)c2cccc(NC(=O)Nc3ccc4c(c3)OCO4)c2O[C@H]1CN(C)C(=O)NC1CCCCC1 → 2.2	nt

Continuation.
The line under a structure holds: BJeLR viability	A1 inhib
CCN1C(=O)c2cccc3c(S(=O)(=O)NC(Cc4c[nH]c5ccccc45)C(=O)O)ccc1c23 (centres undefined)
 : -6.3	nt
Cc1cccc(C)c1NC(=O)CC1C(=O)N(Cc2ccccc2)C(C)c2nc3ccccc3n21 (centres undefined)
 : -1.7	0.3
COc1ccc(NC(=O)Nc2cccc3c2O[C@H](CN(C)Cc2ccccc2)[C@@H](C)CN([C@@H](C)CO)C3=O)cc1
 : 2.8	nt
C[C@@H]1CN([C@H](C)CO)C(=O)c2cccc(NC(=O)Nc3ccc4c(c3)OCO4)c2O[C@@H]1CN(C)Cc1ccc2c(c1)OCO2
 : -3.0	nt
CC(C)c1ccc(NC(=O)C(NC(=O)/C=C/c2ccc3c(c2)OCO3)c2ccccc2)cc1 (centres undefined)
 : 4.9	nt
COc1ccc(NC(=S)NC2CCCCC2)cc1
 : -3.5	nt
Cc1noc(C)c1NC(=O)Nc1ccc2c(c1)C(=O)N([C@@H](C)CO)C[C@H](C)[C@@H](CN(C)Cc1ccc(Oc3ccccc3)cc1)O2
 : 3.6	0.2
C[C@H](CO)N1C[C@H](C)[C@H](CN(C)S(=O)(=O)c2cn(C)cn2)Oc2ccc(NC(=O)Nc3cccc4ccccc34)cc2C1=O
 : -2.7	-0.3
C[C@H](CO)N1C[C@H](C)[C@H](CN(C)CC2CCCCC2)Oc2c(NS(=O)(=O)c3cccs3)cccc2C1=O
 : -3.6	nt
C[C@H](CO)N1C[C@H](C)[C@@H](CN(C)Cc2ccc(C(=O)O)cc2)Oc2c(NC(=O)c3ccncc3)cccc2C1=O
 : -7.4	nt
COc1ccc(NC(=O)Nc2ccc3c(c2)C(=O)N([C@@H](C)CO)C[C@@H](C)[C@H](CN(C)Cc2ccc(Oc4ccccc4)cc2)O3)cc1
 : 0.8	-0.4
Cc1nc(C(F)(F)F)ccc1C(=O)NN1CCOCC1
 : -0.4	1.2
CCCC1c2ccsc2CCN1C(=O)c1cc(OC)cc(OC)c1 (centres undefined)
 : -2.4	0.4
COc1ccc(-c2cc(=Nc3ccc(C)cc3C)c3cc(O)ccc3o2)cc1
 : -1.6	2.5
S=C(NC1CCCCC1)N1CCN(Cc2ccc3c(c2)OCO3)CC1
 : 3.1	0.4
C[C@@H]1CN([C@H](C)CO)C(=O)c2cc(NC(=O)CCN3CCOCC3)ccc2O[C@H]1CN(C)Cc1ccc(Cl)c(Cl)c1
 : 5.4	0.3
COc1ccc(NC(=O)Nc2cccc3c2O[C@H](CN(C)Cc2ccncc2)[C@@H](C)CN([C@H](C)CO)C3=O)cc1
 : 2.0	nt
CCC1(C)Cc2ccccc2-c2c1c(=O)n(-c1ccc(C)cc1)c1nncn21 (centres undefined)
 : 1.9	0.0
CCN=C1S/C(=C\c2cn(CC(=O)Nc3cccc(C)c3)c3ccccc23)C(=O)N1CC
 : -6.0	nt
CCCCN(CC)C(=O)c1cn(CC)c(=O)c2cc(OC)c(OC)cc12
 : 0.5	nt
COc1ccc(NC(=O)N(C)C[C@@H]2Oc3ccc(NC(=O)NC(C)C)cc3C(=O)N([C@@H](C)CO)C[C@@H]2C)cc1
 : -1.7	1.0
S=C(SCc1ncon1)N1CCSCC1
 : -5.5	0.4
Cc1cc(C)c(N(CC(O)Cn2c3ccccc3c3ccccc32)S(C)(=O)=O)c(C)c1 (centres undefined)
 : -0.9	nt
CC(=O)n1c(O)c(/C=C2/C=c3ccc(C)cc3=NC2=O)sc1=N
 : -7.1	-0.3
O=C(CSc1ccccn1)NCC(=O)c1ccccc1
 : -1.2	0.6
CS/C(N)=N/C(N)=Nc1ccc(Cl)cc1
 : 3.2	-1.1
C[C@H](CO)N1C[C@H](C)[C@@H](CN(C)S(=O)(=O)c2ccc(F)cc2)Oc2c(NC(=O)C3CCOCC3)cccc2C1=O
 : -0.2	nt
C[C@@H]1CN([C@H](C)CO)C(=O)c2cccc(NC(=O)C3CCOCC3)c2O[C@@H]1CN(C)C(=O)Nc1cccc2ccccc12
 : -10.7	nt
COc1ccc(NC(=O)Nc2ccc3c(c2)C(=O)N([C@H](C)CO)C[C@H](C)[C@@H](CN(C)S(=O)(=O)c2ccc(C)cc2)O3)cc1
 : 0.6	0.5
Cc1cccc(C(=O)NCCCn2ccnc2)c1
 : 0.3	0.0
Cc1ncc2ccccc2c1C#N
 : 6.6	-0.5
CCOC(=O)C(C)Sc1ncnc2c1nnn2-c1ccc(OC)cc1 (centres undefined)
 : 5.0	-4.4
Cc1ccc(S(=O)(=O)N=S(Cc2ccccc2)Cc2ccccc2)cc1
 : 1.3	-0.4
Cc1cccc(N(C2C=CS(=O)(=O)C2)S(=O)(=O)c2ccccc2)c1 (centres undefined)
 : -0.4	0.5
C[C@@H]1CN([C@H](C)CO)C(=O)c2cc(NC(=O)C3CC3)ccc2O[C@H]1CN(C)Cc1ccc2c(c1)OCO2
 : 1.7	-0.1
C[C@]1(O)CC[C@@H]2C(C(=O)O)=CO[C@@H](O[C@@H]3O[C@H](COC(=O)c4ccc(O)cc4)[C@@H](O)[C@H](O)[C@H]3O)[C@@H]21
 : -2.9	0.3
C[C@H](CO)N1C[C@H](C)[C@H](CN(C)S(=O)(=O)c2ccc(Cl)cc2)Oc2c(NC(=O)c3ccncc3)cccc2C1=O
 : -1.5	nt
Cc1noc(C)c1NC(=O)N(C)C[C@@H]1Oc2ccc(NC(=O)CCC(F)(F)F)cc2C(=O)N([C@@H](C)CO)C[C@@H]1C
 : -2.8	0.0
O=C(c1cccc(COc2ccccc2Cl)c1)N1CCCCC1
 : -4.2	nt
C[C@H](CO)N1C[C@H](C)[C@@H](CN(C)Cc2ccc(-c3ccccc3)cc2)Oc2c(NC(=O)c3ccncc3)cccc2C1=O
 : -2.5	nt
C[C@@H]1CN([C@@H](C)CO)C(=O)c2cc(N(C)C)ccc2O[C@H]1CN(C)C(=O)Nc1ccccc1
 : -0.6	0.5
CN1C(=O)/C(=C\c2ccccc2C(F)(F)F)SC1=S
 : 0.8	0.3
C[C@H](CO)N1C[C@H](C)[C@H](CN(C)Cc2ccc(C(=O)O)cc2)Oc2ccc(NC(=O)Nc3ccccc3)cc2C1=O
 : -1.1	-0.2
CCOc1cc(-c2nc(-c3cc4cc(C)ccc4nc3OC)no2)cc(OCC)c1OCC
 : -2.9	0.1
COC(=O)c1ccccc1S(=O)(=O)/C(C#N)=C/Nc1nc(C)cc(C)n1
 : 1.9	0.3
C[C@H]1CN([C@@H](C)CO)C(=O)c2cccc(NC(=O)NC3CCCCC3)c2O[C@H]1CN(C)Cc1ccc(Oc2ccccc2)cc1
 : 0.1	nt
Cc1cc(N)n(-c2ccccc2C(=O)O)n1
 : -3.9	nt
CCOC(=O)C1=C(C)NC(=O)NC1C (centres undefined)
 : 1.9	1.6
O=S(=O)(Nc1ccc(-c2nc3cccnc3s2)cc1)c1ccccc1
 : 1.5	-5.3
COC(=O)C(Cc1ccccc1)NC(=O)c1ccccc1 (centres undefined)
 : -1.5	0.8
C[C@H]1CN([C@@H](C)CO)C(=O)c2cc(NC(=O)Cc3cn(C)c4ccccc34)ccc2O[C@@H]1CN(C)Cc1ccc(-c2ccccc2)cc1
 : -2.5	0.7
C[C@H](CO)N1C[C@H](C)[C@H](CN(C)Cc2ccc(C(F)(F)F)cc2)Oc2ccc(NC(=O)CCCCCC(=O)Nc3ccccc3N)cc2C1=O
 : 1.0	nt
C[C@@H]1CN([C@H](C)CO)C(=O)c2cccc(NC(=O)c3cnccn3)c2O[C@H]1CN(C)C
 : 4.1	nt
CC(C)C(NC(=O)c1ccc(CN2CCN(c3ccccc3)CC2)cc1)C(C)C
 : 21.4	0.2
Cc1noc(C)c1S(=O)(=O)Nc1ccc2c(c1)C(=O)N([C@@H](C)CO)C[C@@H](C)[C@@H](CN(C)Cc1ccc(C(F)(F)F)cc1)O2
 : -3.5	-0.1
COc1cccc(NC(=O)Cn2ncc3c4ccccc4n(C)c3c2=O)c1
 : 3.4	0.2
C[C@@H]1CN([C@H](C)CO)C(=O)c2cc(NS(=O)(=O)c3ccccc3)ccc2O[C@H]1CN(C)Cc1ccc(C(=O)Nc2ccccc2N)cc1
 : 24.3	nt
CCN1CCN(c2ccc(NC(=O)/C=C/c3ccccc3)cc2)CC1
 : -1.8	0.4
O=C(CNC(=O)c1ccc(Br)cc1)NC1=NCCS1
 : -9.4	-0.3
C[C@H]1CN([C@@H](C)CO)C(=O)c2cc(NC(=O)C3CCCCC3)ccc2O[C@H]1CN(C)C(=O)Nc1ccccc1
 : 4.2	-0.2

(list continues)
The line under a structure holds: BJeLR viability	A1 inhib
C[C@@H]1CN([C@@H](C)CO)C(=O)c2cc(NS(=O)(=O)c3ccc(Cl)cc3)ccc2O[C@H]1CN(C)Cc1ccc(C(F)(F)F)cc1
 : -2.2	-0.1
C[C@@H]1CN([C@@H](C)CO)C(=O)c2cc(N(C)C)ccc2O[C@H]1CN(C)C(=O)Nc1ccc2c(c1)OCO2
 : 1.7	0.8
CC(C)=CCC/C(C)=C/CC/C(C)=C/CSc1ncn[nH]1
 : -0.7	-0.9
CC1(C)CC(=O)C2=C(C1)OC(N)=C(C#N)C21C(=O)N(CO)c2ccccc21 (centres undefined)
 : 2.5	-0.3
CCOc1ccc(S(=O)(=O)n2ccc(C)n2)c2ccccc12
 : 4.8	0.3

3 records picked at random from those above, as already listed:
The line under a structure holds: BJeLR viability	A1 inhib
CCN1CCN(c2ccc(NC(=O)/C=C/c3ccccc3)cc2)CC1
 : -1.8	0.4
S=C(NC1CCCCC1)N1CCN(Cc2ccc3c(c2)OCO3)CC1
 : 3.1	0.4
C[C@H](CO)N1C[C@H](C)[C@H](CN(C)CC2CCCCC2)Oc2c(NS(=O)(=O)c3cccs3)cccc2C1=O
 : -3.6	nt
